# Beta apoptosis – inhibitors of cytokine-induced beta cell apoptosis, primary screen, luminescence | protection from apoptosis, % (no concentration beside the values) | INS-1E cytokine-induced death, ATP luminescence, 48 h; percent of positive-control rescue, neutral wells zero | 300,000 compounds, 0.8% hits;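 active = all replicates at 75% or more, or half of them and the mean; inconclusive = half reach 75% but not the mean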;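 also: 0% = cytokine-treated negative control wells and 100% = positive control rescue; higher means more ATP so stronger rescue from cytokine killing; wells of about 40 µL received 100 nL stock; the first replicate is given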
# RanGTP-Imp inh – inhibitors of RanGTP-importin-beta interaction, primary screen, biochemical, FRET, CFP-Ran, YFP-importin-beta, homogeneous; Ran GTPase (GTP-bound) - importin-beta complex; cell-free CFP-Ran/YFP-importin-beta FRET ratio; inhibition, % (test concentration not listed); 300,000 compounds, 1.1% hits; AID 2216, 2009;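 active = most replicates above 15%; inconclusive = exactly half above 15%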;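 also: 0% = DMSO wells and 100% = Ran loaded with GDP instead of GTP; wells of about 40 µL received 100 nL stock; the first replicate is given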
# MLL AF4-AF9 inh – inhibitors of AF4 peptide binding to AF9, primary screen, biochemical, AlphaScreen, biotin-AF4 peptide, FLAG-AF9, single point; 350,000 compounds, 0.47% hits; inhibition, % at 10 µM; Protein AF-9 (Homo sapiens), P42568;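 active = every replicate reaching a set inhibition limit, whatever the replicate mean, cut at about 25% in these data; inconclusive = mean inhibition reaches that limit but some replicates miss it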;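 also: 0% = plate neutral control median and 100% = total signal loss; the record names both 10 and 1 µM as test concentration; the first replicate is given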
# Target sequence (P42568 whole entry, looked up): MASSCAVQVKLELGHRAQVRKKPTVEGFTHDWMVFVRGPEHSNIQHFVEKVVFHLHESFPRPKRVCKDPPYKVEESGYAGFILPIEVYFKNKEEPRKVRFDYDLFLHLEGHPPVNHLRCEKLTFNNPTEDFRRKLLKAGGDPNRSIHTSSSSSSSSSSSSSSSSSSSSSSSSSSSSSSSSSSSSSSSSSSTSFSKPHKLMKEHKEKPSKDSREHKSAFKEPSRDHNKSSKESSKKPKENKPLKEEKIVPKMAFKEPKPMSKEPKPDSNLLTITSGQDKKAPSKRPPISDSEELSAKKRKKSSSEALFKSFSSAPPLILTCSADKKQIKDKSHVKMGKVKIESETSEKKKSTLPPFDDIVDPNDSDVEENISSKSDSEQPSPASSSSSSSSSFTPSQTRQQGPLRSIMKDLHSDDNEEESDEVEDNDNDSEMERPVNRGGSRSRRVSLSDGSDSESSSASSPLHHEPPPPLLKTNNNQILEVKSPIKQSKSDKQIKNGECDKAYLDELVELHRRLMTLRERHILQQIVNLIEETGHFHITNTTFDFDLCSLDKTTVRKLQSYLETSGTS
# Bfl-1 A1 inh – caspase 3/7 activation in MEF A1-2A-BIM cells, primary screen, A1 inhibitor project, cell-based, luminescence, HTS; caspase activation, % (concentration not given with the values); Caspase-Glo 3/7 luminescence, 3 h; percent of clofoctol response, vehicle zero; 330,000 compounds, 0.066% hits;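 active = over half of replicate activation scores above 10%, or exactly half above 10 with the replicate mean above 10; inconclusive = replicate mean below 10 yet half the replicates above 10; inactive = over half of replicates below 10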;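 also: wells of about 30 µL received 50 nL stock; many hits fall short of the cut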
# Vif A3G – inhibitors of Vif binding to APOBEC3G peptide, primary screen, biochemical, TR-FRET, GST-Vif 1-94, biotin-A3G peptide, dose response retest (AID 1117319); 260,000 compounds, 0.57% hits; Virion infectivity factor (Human immunodeficiency virus type 1 group M subtype B (isolate …; TR-FRET GST-Vif / biotin-A3G peptide binding; higher % means a stronger effect; test concentration not given here; strong numbers were not always called active; one-dose inhibition, %; IC50 in µM for titrated hits;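 active = above the screen mean plus three standard deviations and confirmed in dose response; inconclusive = results disagree or hit not tested in dose response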;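 also: Vif residues 1-94 fused to GST binding biotinylated APOBEC3G peptide 110-148; 0% = full assay without inhibitor and 100% = GST in place of GST-Vif; retest series ran down from 100 µM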
# T cruzi inh – inhibitors of intracellular T. cruzi growth, primary screen, luminescence, NIH3T3 host cells; T. cruzi beta-gal in NIH3T3, 90 h; 300,000 compounds, 1.4% hits; inhibition, % (test concentration not listed);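 active = mean inhibition across valid replicates above about 55%, limit read from the data; inconclusive = mean below that limit but half or more replicates reach it; inactive = mean below it, under half of replicates reach it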;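 also: signal also drops with host cell toxicity which is not excluded here; 0% = plate median of DMSO wells and 100% = zero luminescence signal; higher percent means less beta-gal luminescence so fewer parasites; stock transfer was 50 nL into about 50 µL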
# rRNA inh HTS – reduced GFP signal of wild-type E. coli, primary screen, bacterial rRNA inhibitor project, GFP/RFP fluorescence, OD600, single point; 350,000 compounds, 1.6% hits; GFP signal change (wild-type ribosome), % (test concentration not listed); E. coli WT GFP vs humanized-ribosome RFP mutants, 24 h; active compounds read low; DMSO median 0, no signal -100;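 active = significant combined selectivity score with lowered wild-type GFP, culture density cut under 30%, mutant RFP and density less affected; inactive = any of these conditions unmet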; also: one replicate is shown; some compounds called inactive have numbers as strong as hits
# Calb FLC – C. albicans growth inhibition with fluconazole, primary screen, CaCi-2 strain, Alamar Blue fluorescence | C. albicans CaCi-2 (fluconazole-resistant clinical isolate) + fluconazole, 48 h | growth inhibition, % (concentration not given with the values) | 300,000 compounds, 0.57% hits;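 active = most replicates above 75%; inconclusive = exactly half above 75%; inactive = most below 75%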;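 also: all wells also contain fluconazole at 8 µg/ml as a sub-toxic cotreatment; 0% = median of DMSO wells and 100% = median of geldanamycin control wells; wells of about 8 µL received 7.5 nL stock; the first replicate is given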
# rRNA inh HTS OD600 – also measured in rRNA inh HTS; calls as there; OD600 change, %; measured here: OD600 growth;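 optical density of the mix in the first replicate; 0 = DMSO median and -100 = no signal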
# rRNA inh HTS RFP – also measured in rRNA inh HTS; calls as there; RFP signal change, %; measured here: RFP humanized mutant strains;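 first replicate; 0 = DMSO median and -100 = no signal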
# * marks the source's active call; other numbers are inactive results; u = inconclusive; x = no result given; & = joins results of further samples. This is a subset; rates above refer to the full screens.
SMILES,Beta apoptosis,RanGTP-Imp inh,MLL AF4-AF9 inh,Bfl-1 A1 inh,Vif A3G,T cruzi inh,rRNA inh HTS,rRNA inh HTS OD600,rRNA inh HTS RFP,Calb FLC
CC(=O)c1c(N2CCOCC2)nc2ccc(Cl)cc2c1-c1ccccc1,0,9.1,x,-0.9,0%,-7,-19*,1.6*,-4.2*,7
CCOc1ccc(C(CCc2ccccc2)NC(=O)c2ccccc2F)cc1OCC (stereo unspecified),3,-1.2,-1.0,-0.6,0%,27,8,8,-7.3,-3
Cc1ccc(NC(=O)CCc2c(C)nn(-c3ccc(N4CCCCC4)nn3)c2C)cc1,x,0.8,1.9,1.6,x,8,-25*,-20*,-7.3*,-7
O=C(CSc1nnc(NC(=O)c2ccc3c(c2)OCO3)s1)NCc1ccco1,0,x,-1.8,-9.3,-10%,x,16,10,-10,-11
COc1ccc(CCNS(=O)(=O)CCNC(=O)c2ccccc2)cc1,4,-1.9,2.4,0.3,-6%,-13,-7,-11,-4.1,-7
Cc1cc(C(C)(C)C)oc1C(=O)N(CC(=O)NC1CCCC1)c1ccc(F)cc1,8,4.4,2.8,0.2,-4%,18,-6,0,2.2,-73
CC(CNc1nc2ccccc2n2cnnc12)c1ccccc1 (stereo unspecified),7,6.8,0.5,-1.2,x,-2,-14,-25,0.3,-2
COC(=O)c1cccc(C#CC(NP(=O)(c2ccccc2)c2ccccc2)c2ccccc2)c1 (stereo unspecified),11,-1.2,-1.1,-0.6,-7%,30,-1,3,-8.4,13
O=C(O)c1ccc(-c2ccccc2Cl)o1,-4,4.8,x,0.5,16%,-16,x,x,x,-3
O=[N+]([O-])c1ccc(N2CCN(c3ccc([N+](=O)[O-])cc3CO)CC2)c(CO)c1,70,0.7,0.4,1.0,-3%,12,-7,-3,2.9,5
C/C(=N\N=C1\NC(=O)C(CC(=O)Nc2ccc(Cl)cc2)S1)c1ccco1 (stereo unspecified),7,0.9,1.4,-0.5,9%,-33,x,x,x,42
Cc1ccccc1N=C1SCCN1C(=O)CN1C(=O)NC2(CCCC2)C1=O,-7,0.2,0.0,-0.2,-7%,3,11,9,3.3,-4
CC1CCN(S(=O)(=O)c2cccc(S(=O)(=O)N3CCCC3)c2)CC1,3,4.2,-0.8,0.5,x,18,8,10,-0.2,-15
Cc1ccc(C(=O)CSc2nnc(-c3ccccc3)n2-c2ccccc2)o1,x,u,x,-0.9,4%,11,x,x,x,37
Cc1cc(/C=N/Nc2ccc([N+](=O)[O-])cn2)c(C)n1-c1ccc(C(=O)O)cc1,-1,4.8,20,0.6,3.2µM*,-1,1,3,-1.4,5
COC(=O)c1cccc(C23CC4(C2)[C@H](CN(C)[C@@H]4c2ccccc2)C3c2ccc(C(F)(F)F)cc2)c1 (stereo partly specified),4,0.4,-10,1.1,x,28,23,6,6.1,-8
CC(C)c1ccccc1NC(=O)CCc1nc2ccccc2s1,-6,0.2,x,0.0,x,3,x,x,x,2
COCCn1c(SCC(=O)Nc2cccc(F)c2)nc2c(c1=O)SCC2,0,1.9,-0.1,-0.6,-3%,5,0,8,-2.0,2
Cc1[nH]n(-c2ccccc2)c(=O)c1C(=O)c1ccc([N+](=O)[O-])cc1,-2,2.3,6.8,-2.1,14%,13,-8,-5,-1.9,20
Cc1ccc(S(=O)(=O)c2c(O)c3ccc(C(=O)O)cc3[nH]c2=O)cc1,-11,2.4,-0.7,1.4,-1%,6,3,12,0.5,6
COc1ccccc1C(=O)NCc1nnc(SCC(=O)Nc2nccs2)n1C,1,-4.4,1.6,-1.0,x,-8,1,1,-1.8,-2
Cc1ccccc1C(=O)NNC(=S)NC(=O)c1ccccc1,11,1.3,x,-0.5,-4%,-47,x,x,x,98*
COc1ccc(S(=O)(=O)N(C)C[C@H]2Oc3c(NC(=O)Nc4c(C)noc4C)cccc3C(=O)N([C@@H](C)CO)C[C@H]2C)cc1,-7,x,0.7,0.0,-8%,x,2&2,6&-1,-0.8&-1.3,x
Cc1nnc2c(N(C)S(=O)(=O)c3ccccc3)nc3ccccc3n12,x,0.0,-4.2,-0.1,x,-3,9,-2,-0.2,-6
O=C(CSc1nc2ccccc2n1S(=O)(=O)c1cccc([N+](=O)[O-])c1)NCCc1ccccc1,-2,-4.8,3.5,0.4,7%,-14,-33*,-8.4*,1.0*,-8
CCOC(=O)C1CCN(c2c(NCCCN(CC)Cc3ccccc3)c(=O)c2=O)CC1,4,-1.1,x,-0.7,11%,0,x,x,x,-10
C=CCN1C(=O)OC2(CCCCC2)C1(C)O (stereo unspecified),-6,-1.6,x,0.3,0%,-21,x,x,x,-15
COc1cc(OC)cc(-c2nc3ccccc3c(=O)n2OC(=O)c2ccc(Br)cc2)c1,9,-0.1,0.3,0.4,x,2,-25*,-16*,-5.0*,-6
O=C(NC1Cc2ccccc2C1)c1cc(COc2cccc(C(F)(F)F)c2)on1,x,0.1,-7.8,x,-1%,7,4,17,0.6,-3
COCc1nnc(NC(=O)c2ccco2)s1,-2,0.2,x,0.2,u,-17,x,x,x,4
CC(=O)NN(O)C1N(C)C(=O)N(Cc2ccccc2)C1(C)C (stereo unspecified),-9,0.7,-2.2,-0.5,x,-12,0,5,-0.4,-8
CSCC[C@H](NS(=O)(=O)c1ccc(C)cc1)C(=O)N1CCC(C(=O)N[C@H](C(=O)O)c2ccccc2)CC1,-3,u,-3.5,-0.1,x,-11,x,x,x,-2
O=C(COc1ccccc1)NC1CCSC1=O (stereo unspecified),1,0.1,-1.1,-0.8,-4%,-17,11,6,-2.2,2
CC(NC(=O)c1c(Cl)cnn1C)C1CCCO1 (stereo unspecified),-2,-2.7,-0.8,-1.0,u,-9,1,2,-0.8,2
CC(NC(=O)c1ccccc1NC(=O)c1ccco1)C(=O)O (stereo unspecified),-5,-1.9,x,0.0,31%,-7,x,x,x,7
Cc1c(Cl)cccc1NC(=O)CCCn1cnc([N+](=O)[O-])n1,x,0.1,-0.5,x,x,56*,-24,-36,-15,-10
CCOC(=O)CC(=O)CSc1[nH]c(=O)cc(C)c1C#N,-3,-0.1,x,-0.9,19%,-8,x,x,x,-9
CCNC(=O)CC1C(=O)N(CC)C(=S)N1NC(=O)c1ccccc1 (stereo unspecified),-4,-3.5,-2.6,-0.3,-3%,-3,6,7,-1.6,u
O=C(Cc1ccccc1)N/N=C/C=C/c1cccc([N+](=O)[O-])c1,2,u,x,1.6,u,-1,x,x,x,-5
O=C(NCCN1CCOCC1)c1cccc(S(=O)(=O)N2CCCC2)c1,-4,1.3,-0.3,1.0,x,-14,21,9,1.1,39
c1cnc2c(C3NCCc4c3[nH]c3ccccc43)cccc2c1 (stereo unspecified),-3,2.2,x,0.2,28%,19,x,x,x,-7
O=C(O)c1ccccc1-c1ccccc1C(=O)NCc1cccnc1,3,x,-1.9,-0.1,-7%,-2,8,10,0.4,9
COc1ccc(/C=N/OCC(=O)N=Nc2c(O)[nH]c3ccc(Br)cc23)cc1,-5,1.9,-0.6,-0.8,21%,9,2,8,-0.1,u
CC(=O)N1CCN=C1SCc1cccc(C)c1,x,3.6,-0.4,-0.8,-1%,4,15,8,1.5,-7
CC(=O)Nc1ccc(NC(=O)CSCCc2ccccn2)cc1,4,-1.6,x,-0.3,2%,-4,x,x,x,u

# Quoted from the listing:
# `O=C(Cc1ccccc1)N/N=C/C=C/c1cccc([N+](=O)[O-])c1` | Beta apoptosis = 2
# `c1cnc2c(C3NCCc4c3[nH]c3ccccc43)cccc2c1` (stereo unspecified) | Beta apoptosis = -3

# (next part)
SMILES,Beta apoptosis,RanGTP-Imp inh,MLL AF4-AF9 inh,Bfl-1 A1 inh,Vif A3G,T cruzi inh,rRNA inh HTS,rRNA inh HTS OD600,rRNA inh HTS RFP,Calb FLC
CCOc1ccc(C(F)(F)F)cc1NC(=O)c1ccc(OC)c([N+](=O)[O-])c1,0,-2.1,5.0,0.6,11%,-1,9,-5,-2.2,-3
CCCCc1ccc(/C=C2\C(=O)ON=C2c2ccccc2)s1,-1,u,0.5,-0.2,0%,-11,5,5,0.2,u
Cc1nn(-c2ccccc2)c2sc(C(=O)OCN3C(=O)c4ccccc4C3=O)cc12,-9,5.8,x,-0.2,x,1,x,x,x,-2
CCn1c2c(c(=N)c3c1CCC3)CCCC2,13,4.0,1.4,0.3,8%,-3,9,-3,-2.9,-2
COc1ccc(C(=O)COC(=O)[C@@H](NS(=O)(=O)c2ccccc2)C(C)C)cc1,0,x,-1.2,-0.6,-2%,x,0,5,3.9,x
O=C(CCN1C(=O)C2C3C=CC(C4CC34)C2C1=O)Oc1ccccc1 (stereo unspecified),-6,6.3,-3.3,-0.4,-10%,-14,10,10,-0.5,6
O=C(Nc1oc2ccccc2c(=O)c1-c1ccc(Br)cc1)c1ccco1,x,3.0,-0.4,-1.3,x,3,-23,-29,-6.2,4
COc1cc(CC(NC(C)=O)C(=O)NC2CCN(c3c(Cc4ccccc4)c(C)nc4ncnn34)CC2)cc(OC)c1 (stereo unspecified),3,2.2,x,-1.3,10%,2,x,x,x,7
CCCn1c(SCC(=O)NCc2ccc(Cl)cc2)n[nH]c1=O,1,4.1,-2.5,0.3,-4%,1,6,4,-0.5,13
CC(=O)NCCCc1nc2ccccc2n1Cc1ccccc1C,-4,-9.9,x,0.0,-4%,-4,x,x,x,3
CC(=O)Nc1ccc(Oc2ccccc2)cc1,-5,2.4,6.0,0.4,-9%,-8,3,0,-0.3,8
O=C(NC1CCCCC1)C(c1cccs1)N(C(=O)Cc1c[nH]c2ccccc12)c1ccc(F)cc1 (stereo unspecified),5,u,x,0.2,-1%,57*,x,x,x,42
c1ccc(Oc2nc(-c3cccnc3)nc3ccccc23)cc1,12,1.3,1.2,0.4,3%,24,9,11,2.8,-15
CC(=O)c1ccc(OC(=O)c2nc(-c3ccccc3)oc2C)cc1,-3,-1.2,1.4,0.2,x,-8,1,5,0.5,2
Cc1nc2c(cc1NC(=O)c1ccccc1)nc(C)n2Cc1ccccc1,-1,-1.8,-2.7,0.2,x,-2,-1,1,-4.5,12
Cc1cc(C)c(NC(=O)c2cccc3c2C(=O)N(C2CCCCC2)C3)c(C)c1,-9,1.9,x,-0.8,x,-14,x,x,x,2
